# rRNA inh HTS: reduced GFP signal of wild-type E. coli, primary screen, bacterial rRNA inhibitor project, GFP/RFP fluorescence, OD600, single point; AID 720706, 2013; E. coli WT GFP vs humanized-ribosome RFP mutants, 24 h; hits give low values; DMSO median 0, no signal -100; actives 1.6% (n = 350,000); GFP signal change (wild-type ribosome), % (test concentration not listed);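 active = significant combined selectivity score with lowered wild-type GFP, culture density cut under 30%, mutant RFP and density less affected; inactive = any of these conditions unmet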; also: one replicate is shown; some compounds called inactive have numbers as strong as hits
# FGF22 binding: binders of human FGF22 protein, primary screen, FGF22 synaptogenesis inhibitor project, biophysical, thermal shift, single point. actives 1.5% (n = 340,000). calls only at 9.99 µM. AID 651658, 2012. Fibroblast growth factor 22 (Homo sapiens), Q9HCT0. recombinant FGF22 thermal shift, SYPRO orange fluorescence; percent of sucrose octasulfate shift, DMSO zero;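 active = melting point raised past a set limit in the mean and every replicate; three in four hits are not shown here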
# Target sequence (Q9HCT0 whole entry, looked up): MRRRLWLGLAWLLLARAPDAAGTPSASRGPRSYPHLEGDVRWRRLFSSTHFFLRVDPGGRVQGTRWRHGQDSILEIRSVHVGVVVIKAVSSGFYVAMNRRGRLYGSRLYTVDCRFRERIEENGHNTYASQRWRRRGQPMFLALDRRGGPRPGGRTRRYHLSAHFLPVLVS
# UCH37 DUB inh: inhibitors of human UCH37 deubiquitinase, primary screen, biochemical, Ub-AMC cleavage, fluorescence | Ubiquitin carboxyl-terminal hydrolase isozyme L5 (Homo sapiens), Q9Y5K5 | purified proteasome/UCH37 | inhibition, % (no concentration beside the values) | actives 0.33% (n = 330,000);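 active = mean of two replicates above 20%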;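 also: 0% = compound-free wells with enzyme and 100% = wells lacking proteasome; stock transfer was 100 nL into about 20 µL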
# Target sequence (Q9Y5K5 whole entry, looked up): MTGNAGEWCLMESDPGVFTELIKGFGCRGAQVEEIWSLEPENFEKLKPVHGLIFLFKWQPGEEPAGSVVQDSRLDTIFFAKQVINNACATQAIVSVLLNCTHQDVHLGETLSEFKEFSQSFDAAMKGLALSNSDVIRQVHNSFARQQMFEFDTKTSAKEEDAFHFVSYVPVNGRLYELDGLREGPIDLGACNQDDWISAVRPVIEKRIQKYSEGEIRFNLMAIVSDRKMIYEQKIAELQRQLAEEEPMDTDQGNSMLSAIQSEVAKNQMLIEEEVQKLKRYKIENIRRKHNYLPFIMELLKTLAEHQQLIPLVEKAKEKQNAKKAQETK
#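 Schedule: 30 min plus 25 min, room temperature / Material: human UCH37 within purified proteasomes / Technique: AMC fluorescence intensity at 355/460 nm / Buffer or medium: pH 7.4 Tris-HCl (50 mM) with ovalbumin, ATP-MgCl2, DTT / Controls: wells without proteasome as full block, compound-free enzyme plus substrate as uninhibited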
# ALR H2O2 inh: inhibitors of human ALR sulfhydryl oxidase, primary screen, biochemical, H2O2 detection, HRP-luminol luminescence, single point; FAD-linked sulfhydryl oxidase ALR (Homo sapiens), P55789; purified ALR, DTT oxidation; inhibition, % (no concentration beside the values); actives 3.8% (n = 290,000); AID 485317, 2010;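 active = mean and each replicate at 75% or more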;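 also: stock transfer was 7.5 nL into about 7.5 µL; 0% = neutral wells and 100% = wells with inactivated enzyme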
# E coli growth: E. coli growth inhibition, primary screen, OD600; Escherichia coli growth, 23 h; hits give low values; OD600 absorbance (no concentration beside the values); actives 0.21% (n = 330,000);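 active = OD600 absorbance below the run mean of sample wells minus 3.6 SD, in any replicate, cut at about 0.56 in these data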;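 also: stock transfer was 300 nL into about 60 µL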
# B2AR ag: beta2AR agonists driving receptor internalization, primary screen, cell-based, FAP fluorogen, flow cytometry | actives 0.43% (n = 340,000) | response, % (test concentration not listed) | Beta-2 adrenergic receptor (Homo sapiens), P07550 | Am2.2-beta2AR cells; reference of the scale not given here | AID 504454, 2011;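 active = response above a set limit, near 3 SD of response in nonfluorescent compounds, cut at about 42% in these data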;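 also: stock transfer was 100 nL into about 11 µL; a reference agonist was the positive control; negative values mostly stem from fluorescent compounds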
# HNF4A DNA FP: change in binding of human HNF4A to DNA, primary screen, biochemical, fluorescence polarization, FITC-DNA; actives 0.3% (n = 360,000); AID 1224865, 2016; activity change, % at 10 µM; 1 h; Hepatocyte nuclear factor 4-alpha (Homo sapiens), P41235; in the data active = activity change above about 30%, passing the limit was not always enough;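 also: controls were the assay level and a saturating level of protein; the project sought stronger binding though the title names inhibitors; some compounds called inactive have numbers as strong as hits; positive values seem to mean higher polarization but the record does not say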
# Target sequence (P41235 whole entry, looked up): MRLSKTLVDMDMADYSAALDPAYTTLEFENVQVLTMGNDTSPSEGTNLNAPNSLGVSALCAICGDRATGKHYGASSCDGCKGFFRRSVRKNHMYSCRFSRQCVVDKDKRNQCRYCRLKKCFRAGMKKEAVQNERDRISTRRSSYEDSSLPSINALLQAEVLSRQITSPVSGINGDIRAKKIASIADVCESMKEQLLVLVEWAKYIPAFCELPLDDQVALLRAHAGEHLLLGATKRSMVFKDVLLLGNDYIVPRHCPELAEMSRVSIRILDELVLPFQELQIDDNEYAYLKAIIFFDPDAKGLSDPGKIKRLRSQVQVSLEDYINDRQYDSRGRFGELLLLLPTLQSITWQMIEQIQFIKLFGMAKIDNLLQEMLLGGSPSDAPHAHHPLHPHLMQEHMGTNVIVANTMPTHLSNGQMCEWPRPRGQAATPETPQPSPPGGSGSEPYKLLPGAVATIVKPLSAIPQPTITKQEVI
# rRNA inh HTS OD600: recorded beside rRNA inh HTS, whose call it bears; OD600 change, %; measured here: OD600 growth;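 optical density of the mix in the first replicate; 0 = DMSO median and -100 = no signal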
# rRNA inh HTS RFP: also measured in rRNA inh HTS; calls as there; RFP signal change, %; measured here: RFP humanized mutant strains;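 first replicate; 0 = DMSO median and -100 = no signal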
# * marks the source's active call; other numbers are inactive results; i = inactive; / = not tested or not shown. Some of the compounds tested (hit frequency here may not be typical).
SMILES,rRNA inh HTS,rRNA inh HTS OD600,rRNA inh HTS RFP,FGF22 binding,UCH37 DUB inh,ALR H2O2 inh,E coli growth,B2AR ag,HNF4A DNA FP
CC(C)[C@H](NS(=O)(=O)c1cccc(C(F)(F)F)c1)C(=O)OCC(=O)NC(=O)NCc1ccco1,-4,-4,4.5,i,3.7,-11,0.7,-1,-2.7
CCOC(=O)c1cc2cc(OC)ccc2[nH]1,/,/,/,/,-56,-2,0.77,-4,3.4
COc1ccc(-c2cn(-c3ccc(C)cc3)c(=O)n2CC(=O)Nc2ccc(OC)cc2OC)cc1,/,/,/,/,3.9,-7,0.69,1,1.9
Cc1cc(C(=O)Nc2sc3c(c2C#N)CCCCC3)cs1,-19,-19,0.9,i,-21,4,0.69,13,6.4
CCSc1n[nH]c(=S)s1,-1,7,0.4,/,4.3,-12,0.67,-5,2.3
Clc1cccc(CN2CCN(c3ncccn3)CC2)c1Cl,-32,-39,0.5,i,-0.4,/,0.7,-3,-0.5
CCOC(=O)COc1ccc(S(=O)(=O)NCC2CCCO2)cc1 (stereo not drawn),8,4,-0.5,i,2.3,-5,0.68,7,-3.5
COc1cc(Cn2c(-c3nonc3N)nc3ccccc32)ccc1C,/,/,/,/,6.0,-11,0.74,1,3.9
Cc1cc(C(=O)N2CCN(C(=O)C3CCCO3)CC2)no1 (stereo not drawn),/,/,/,/,0.4,-7,0.63,1,-1.1
O=C1NC(CCc2ccccc2)C(=O)N1Cc1ccc(Br)cc1 (stereo not drawn),9,8,3.4,i,0.5,-1,0.68,2,-5.2
CCOc1ccccc1Nc1nc(N2CCCC2)nc(N2CCOCC2)n1,-3,-11,-9.6,i,1.0,-3,0.68,11,0.1
COc1ccc(OCC(=O)N(Cc2ccco2)C2CCS(=O)(=O)C2)cc1 (stereo not drawn),0,8,0.2,i,3.6,-18,0.63,6,3.4
CC[C@]12c3[nH]c4cc(CCC(=O)N(C)C)ccc4c3CCN1C(=O)[C@@H](CC(=O)NCCCN(C)C)C[C@@H]2C(=O)N1CCN(C(=O)c2ccco2)CC1,27,19,-0.8,i,2.4,/,0.69,18,-0.9
O=C(C[n+]1cc(-c2ccc(Cl)c(Cl)c2)n2c1CCC2)N1c2ccccc2Sc2ccccc21,/,/,/,/,16,/,0.62,1,3.0
CC1=C(C(=O)N(C(C)C)C(C)C)CC(CC(=O)NCc2cccc3ccccc23)C(=O)N1Cc1ccccc1 (stereo not drawn),-15,-27,1.4,i,/,/,/,/,-0.3

# A few values from the list:
# COc1ccc(OCC(=O)N(Cc2ccco2)C2CCS(=O)(=O)C2)cc1 (stereo not drawn) in B2AR ag has 6
# CC1=C(C(=O)N(C(C)C)C(C)C)CC(CC(=O)NCc2cccc3ccccc23)C(=O)N1Cc1ccccc1 (stereo not drawn) in rRNA inh HTS has -15
# O=C(C[n+]1cc(-c2ccc(Cl)c(Cl)c2)n2c1CCC2)N1c2ccccc2Sc2ccccc21 in E coli growth has 0.62

# Next results
SMILES,rRNA inh HTS,rRNA inh HTS OD600,rRNA inh HTS RFP,FGF22 binding,UCH37 DUB inh,ALR H2O2 inh,E coli growth,B2AR ag,HNF4A DNA FP
COc1cccc(C(=O)Nc2ccc(NC(C)=O)cc2)c1,/,/,/,/,2.1,-8,0.71,-6,-2.8
O=C(CCCn1cncn1)N1CCCC(N2CCN(c3ccccc3F)CC2)C1 (stereo not drawn),8,12,-1.1,i,3.3,4,0.69,8,11
NC(=O)CSc1nnc(-c2cc(-c3ccc(Cl)cc3)nc3ccccc23)o1,8,2,-0.6,/,-1.5,-6,0.65,-5,3.1
C=CCOc1ccc(C[C@H](N)C(=O)NC[C@H]2O[C@@H](n3cnc4c(N)ncnc43)[C@H](O)[C@@H]2O)cc1,/,/,/,/,-3.1,/,0.68,-5,0.0
Cc1cc(C)cc(-n2c(N)c(C(=O)Nc3c(C)n(C)n(-c4ccccc4)c3=O)c3nc4ccccc4nc32)c1,/,/,/,/,-68,-21,0.71,11,-1.0
CSc1nc2ccccc2cc1/C=C(\C#N)c1ccccc1,/,/,/,/,-69,-1,0.74,6,-0.3
CCC(Cc1ccccc1)NC(=O)c1ccc2nc(N3CCOCC3)sc2c1 (stereo not drawn),-2,4,-1.0,i,5.4,/,0.75,-2,-4.8
COCCN=c1scc(C)n1/N=C/C1CC2C=CC1C2 (stereo not drawn),13,16,1.4,i,/,10,/,-1,1.3
O=C(Nc1ccc(C(=O)O)cc1)/C(=C\c1ccc2c(c1)OCO2)NC(=O)c1ccccc1,-5,-1,-1.3,i,8.5,-16,0.67,6,0.8
Cc1ccccc1NC(=O)c1nnn(-c2ccc3c(c2)OCCO3)c1N,0,-24,-4.8,i,0.6,-1,0.64,8,0.6
COc1cc(/C=N/NC(=O)c2cc3c(ccc4ccccc43)o2)cc(OC)c1O,-35,-61,11,i,/,-13,/,22,2.3
CCn1cc(CN2CCC(n3nccc3NC(=O)Cc3ccccc3)CC2)c(C)n1,11,8,0.7,i,2.4,0,0.72,8,3.8
Cn1nnnc1SCc1nnc(-c2ccccc2Br)o1,/,/,/,/,0.8,0,0.78,-9,4.7
CSc1nc(Nc2ccc(Cl)cc2)c(C#N)c(=O)[nH]1,2,15,0.4,i,4.9,-8,0.67,3,-1.5
Cc1cccc(C(=O)Nc2ncc(CN3CCOCC3)s2)c1,9,6,-3.5,i,0.3,-18,0.63,7,-1.1
CC1CN(c2nc3c(c(=O)[nH]c(=O)n3C)n2Cc2ccccc2F)CC(C)O1 (stereo not drawn),/,/,/,/,0.6,-22,0.7,5,-4.6
Cc1ccc(C(=O)N2N=C(c3ccc(NS(C)(=O)=O)cc3)CC2c2cccs2)cc1 (stereo not drawn),-7,-11,-4.6,i,-0.2,-6,0.63,10,-1.3
NC(=O)c1ccc(C(F)(F)F)n(Cc2ccc(Cl)cc2)c1=O,/,/,/,/,2.4,-3,0.66,-13,-8.3
CC(C)(C)NC(=O)NC(=O)COC(=O)C1CCN(S(=O)(=O)c2cccs2)CC1,18,16,-0.7,i,3.6,/,0.68,-5,-0.6
Cc1ccc(S(=O)(=O)c2nnn3c2nc(NCCCN2CCCC2=O)c2ccccc23)cc1C,-4,-4,-1.6,i,-60,-9,0.69,-4,2.3
COc1ccc2oc(C(=O)OCC(=O)N3CCCCC3C)c(C)c2c1 (stereo not drawn),-7,-13,0.1,i,-70,-6,0.64,2,3.4
O=C(Cn1ccc([N+](=O)[O-])n1)c1ccccc1,3,2,-3.0,i,3.4,-3,0.73,-1,5.4
COc1ccc(CCN(C)Cc2ccc(C(=O)Nc3ccccc3)cc2)cc1OC,0,-1,-3.0,i,0.5,2,0.68,19,0.7
O=C(NNc1ccc([N+](=O)[O-])cc1)C12CC3CC(CC(C3)C1)C2,/,/,/,/,3.7,57,0.71,-2,0.4
O=C(N/N=C/c1oc(O)c2ccccc12)c1ccccc1O,14,16,3.6,i,/,4,/,-2,-3.7
CNc1cnc(-c2cc(OC)c(OC)c(OC)c2)cn1,0,14,-1.9,i,/,/,/,/,-2.3

# Some of the entries above in a different format:
molecule	rRNA inh HTS	rRNA inh HTS OD600	rRNA inh HTS RFP	FGF22 binding	UCH37 DUB inh	ALR H2O2 inh	E coli growth	B2AR ag	HNF4A DNA FP
COc1cc(/C=N/NC(=O)c2cc3c(ccc4ccccc43)o2)cc(OC)c1O	-35	-61	11	i	/	-13	/	22	2.3
CCn1cc(CN2CCC(n3nccc3NC(=O)Cc3ccccc3)CC2)c(C)n1	11	8	0.7	i	2.4	0	0.72	8	3.8
Cn1nnnc1SCc1nnc(-c2ccccc2Br)o1	/	/	/	/	0.8	0	0.78	-9	4.7
CSc1nc(Nc2ccc(Cl)cc2)c(C#N)c(=O)[nH]1	2	15	0.4	i	4.9	-8	0.67	3	-1.5
Cc1cccc(C(=O)Nc2ncc(CN3CCOCC3)s2)c1	9	6	-3.5	i	0.3	-18	0.63	7	-1.1
CC1CN(c2nc3c(c(=O)[nH]c(=O)n3C)n2Cc2ccccc2F)CC(C)O1 (stereo not drawn)	/	/	/	/	0.6	-22	0.7	5	-4.6
Cc1ccc(C(=O)N2N=C(c3ccc(NS(C)(=O)=O)cc3)CC2c2cccs2)cc1 (stereo not drawn)	-7	-11	-4.6	i	-0.2	-6	0.63	10	-1.3
NC(=O)c1ccc(C(F)(F)F)n(Cc2ccc(Cl)cc2)c1=O	/	/	/	/	2.4	-3	0.66	-13	-8.3
CC(C)(C)NC(=O)NC(=O)COC(=O)C1CCN(S(=O)(=O)c2cccs2)CC1	18	16	-0.7	i	3.6	/	0.68	-5	-0.6
Cc1ccc(S(=O)(=O)c2nnn3c2nc(NCCCN2CCCC2=O)c2ccccc23)cc1C	-4	-4	-1.6	i	-60	-9	0.69	-4	2.3
COc1ccc2oc(C(=O)OCC(=O)N3CCCCC3C)c(C)c2c1 (stereo not drawn)	-7	-13	0.1	i	-70	-6	0.64	2	3.4
O=C(Cn1ccc([N+](=O)[O-])n1)c1ccccc1	3	2	-3.0	i	3.4	-3	0.73	-1	5.4
COc1ccc(CCN(C)Cc2ccc(C(=O)Nc3ccccc3)cc2)cc1OC	0	-1	-3.0	i	0.5	2	0.68	19	0.7
O=C(NNc1ccc([N+](=O)[O-])cc1)C12CC3CC(CC(C3)C1)C2	/	/	/	/	3.7	57	0.71	-2	0.4
O=C(N/N=C/c1oc(O)c2ccccc12)c1ccccc1O	14	16	3.6	i	/	4	/	-2	-3.7
CNc1cnc(-c2cc(OC)c(OC)c(OC)c2)cn1	0	14	-1.9	i	/	/	/	/	-2.3

# From PubChem
